Calb biofilm kill: mixtures killing C. albicans biofilm; C. albicans biofilm persisters + clotrimazole, fluorescence viability; primary screen in compound mixtures of four per well; inhibition, % at 7.6 µM; actives 0.02% (n = 120,000); AID 1242;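 active means inhibition above 30.3% in the primary screen of four-compound pools, then above 30% when the compound was retested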;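 further: compounds exposed to preformed 24 h biofilms for 48 h; the number belongs to the whole pool; some results filed as inactive read as strong as hits; inactives centre near 12; 0% = biofilm with clotrimazole alone and 100% = kill control; retested singly at about 60 µM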
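Test system: C. albicans biofilms. Buffer or medium: RPMI/MOPS medium, pH 7.0. Timing: 48 h compound exposure at 37 °C. Technique: Alamar Blue fluorescence. Evaluation: percent inhibition of biofilm viability.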
Numbers without * were called inactive. The list is partial. The share of hits here may be higher or lower than overall.

molecule	Calb biofilm kill
COc1ccc(NC(=O)C2CC(=O)N(Cc3ccc(C)cc3)C2)cc1S(=O)(=O)N1CCCCC1 (stereo not given)	21
OCCC1CN(Cc2cnc(N3CCCC3)s2)CCN1C1CCCC1 (stereo not given)	15
COC(=O)[C@@H]1C[C@@]2(O)[C@H](O)[C@H](O)[C@H](O)C[C@H]2N1Cc1cc(OC)cc(OC)c1	15
FC(F)(F)c1cc(-c2cccs2)nc2ncnn12	13
O=C(CNC(=O)C1CCCCC1)Nc1ccc(F)c(Cl)c1	13
COc1ccc(C2NC(=S)NC3=C2N2CCC3CC2)cc1 (stereo not given)	17
COC(=O)N/N=C/c1cccc([N+](=O)[O-])c1	16
CC(=O)c1cccc(NC(=O)COC(=O)c2cccs2)c1	8
CC(=O)Oc1cc2c(cc1Cl)C(c1cccs1)CC1(CC(C)(C)NC(=S)N1)O2 (stereo not given)	19
Cc1cccc(-c2nc3ccccc3c(=O)n2NC(=O)c2cccs2)c1	11
Cc1ccc(CN2CCN(/N=C/c3ccc(C(F)(F)F)cc3)CC2)cc1	9
COc1ccc(-c2[nH]ncc2CN2CCN(Cc3cccs3)CC2)cc1F	17
CCOc1ccc(-c2nn[nH]n2)cc1OCC	11
CCOC(=O)C(=O)N/N=C/c1ccco1	7
CC(C)(C)OC(=O)NCc1n[nH]c(=S)n1C1CC1	26
CC(=O)C1C(=O)c2c(cccc2[N+](=O)[O-])C1=Nc1cccc(Cl)c1 (stereo not given)	5
CO[C@@H]1O[C@@H]2COC(c3ccccc3)O[C@@H]2[C@@H](OC)[C@@H]1O (stereo not given in full)	-1
CC(C)(C)n1nc2c(c1NC(=O)c1ccccc1)CS(=O)(=O)C2	0
COc1ccc(/C=C/C(=O)N(C)C2CCS(=O)(=O)C2)cc1OC (stereo not given)	9
Cc1cc(Nc2cccc(O)c2)c2ccccc2n1	9
COC(=O)c1ccc(NCN2C(=O)C3C4CCC(C4)C3C2=O)cc1 (stereo not given)	0
Cc1cccc(NC(=O)C(Cc2ccccc2)n2cccc2)c1 (stereo not given)	8
O=C(c1ccc(F)cc1)N1CCN(c2cnn(-c3ccccc3)c(=O)c2Cl)CC1	10
COc1ccc(NC(=O)CC2(Cc3ccccc3)CCOC(C)(C)C2)cc1 (stereo not given)	20
COc1ccc(N2CCN(C(CNC(=O)C(=O)NCCc3c[nH]c4ccccc34)c3ccco3)CC2)cc1 (stereo not given)	9
Cc1cccc(NC(=S)NNC(=O)CCn2nc(C)c([N+](=O)[O-])c2C)c1	5
CCn1cc([N+](=O)[O-])c(C(=O)N2N=C(c3ccc(O)c(OC)c3)CC2c2ccccc2O)n1 (stereo not given)	8
COc1ccc(C(=O)c2ncc(C(F)(F)F)cc2Cl)cc1	-6
CCCCn1c(N)c(NCc2ccccc2OC)c(=O)[nH]c1=O	-2
COc1ccc(C)cc1NC(=O)CNc1ccc(C(C)=O)cc1	12

molecule	Calb biofilm kill
CC(C)CC(=O)Nc1sc2c(c1C(=O)O)CCCCC2	12
CCN(CC)c1ccc(S(=O)(=O)N2CCOCC2)cc1NC(=O)CNCc1ccccc1	7
N#CCCn1nc(-c2ccccc2)cc1Nc1ccccc1NC(=O)C(F)(F)F	15
O=C(Cn1c2ccccc2c2nc3n(c(=O)c21)CCS3)Nc1ccccc1C(F)(F)F	21
CN1CCN(CCC(=O)Nc2ccc3c(c2)OCO3)CC1	10
COc1cc2c(cc1OC)C(c1ccccc1)CC2=O (stereo not given)	8
NNC(=O)CSCc1nc(-c2ccccc2)cs1	16
C/C(=N/NC(=O)CNC(=O)/C=C/c1ccco1)c1ccc(Cl)cc1	20
CCn1c(NCCCO)nc2c(c1=O)C(C)(CC)Cc1ccccc1-2 (stereo not given)	7
Cc1sc(NC(=O)Cn2c(=O)oc3ccccc32)nc1-c1ccc(Cl)cc1	12
CCCN1C(=O)c2cc(C(=O)Nc3ccc(OC)c(OC)c3)ccc2C1Nc1ccc(OC)c(OC)c1 (stereo not given)	13
C=C(C)C(=O)N1CC2(CC(c3cccc(NC(=O)COc4ccc(Cl)cc4)c3)=NO2)C[C@@H]1C(N)=O (stereo not given in full)	8
Cc1cc(NC(=O)CSc2nnc(-c3ccccc3)n2C)no1	14
CC/C(=N\N=C1\SC(C)C(=O)N1Cc1ccco1)c1ccccc1 (stereo not given)	8
CSC(=Nc1cccc(C)c1)NC#N	18
CCOc1cc(/C=N/Nc2nn3cnnc3c3ccccc23)ccc1O	27
NC1=NC(=Nc2ccc(S(=O)(=O)N3CCOCC3)cc2)c2ccccc21	7
Cc1ccccc1NC(=S)N(CCN1CCCCC1)Cc1ccco1	16
C=CCNC(=O)COC(=O)COc1ccc(Cl)cc1	14
CCOC(=O)N/N=C\c1ccc(OC(=O)c2ccc3c(c2)OCO3)cc1	14
Cc1ccc(NNC(=O)Nc2ccc(Cl)cc2)nn1	0
CC(C)CN(C(=O)CN1CCN(c2ccccc2O)CC1)c1c(N)n(CC(C)C)c(=O)[nH]c1=O	8
COc1ccc(C(=O)NC2CCSC2=O)cc1 (stereo not given)	7
CN1N=C(C(=O)N2CCc3c([nH]c4ccccc34)C2c2ccccc2Cl)CCC1=O (stereo not given)	12
Cc1n[nH]c(C)c1Cc1c(F)cccc1Cl	11
CC(=O)C1=C(O)CC(C)(C)CC1=NCCc1nc2ccccc2[nH]1	21
O=C(O)CSc1ccc(NC(=O)Nc2ccccc2F)cc1	22
CCCCc1c(C(=O)O)cc(OC)cc1C(=O)O	11
O=C(C[n+]1cccc(NC(=O)c2ccccc2)c1)c1cccc([N+](=O)[O-])c1	13
C#Cc1ccc([C@@H]2C=C(C(=O)O)O[C@H](OCc3ccc(CO)cc3)C2)cc1	11

A portion from further up:
molecule	Calb biofilm kill
O=C(O)CSc1ccc(NC(=O)Nc2ccccc2F)cc1	22
CCCCc1c(C(=O)O)cc(OC)cc1C(=O)O	11
O=C(C[n+]1cccc(NC(=O)c2ccccc2)c1)c1cccc([N+](=O)[O-])c1	13
C#Cc1ccc([C@@H]2C=C(C(=O)O)O[C@H](OCc3ccc(CO)cc3)C2)cc1	11

Other structures:
molecule	Calb biofilm kill
CC1(c2nnc(-c3ccncc3)o2)CC(c2ccc(F)cc2)=NO1 (stereo not given)	12
N#C/C(C(=O)N1CCOCC1)=c1/s/c(=C\c2ccccn2)c(=O)n1-c1ccccc1	5
CCc1nc2ccccc2c(C(=O)NCc2ccc(OC)cc2)c1C	4
Cc1ccc(OCCCC(=O)NC(C)c2ccccc2)c(C)c1 (stereo not given)	11
O=C(Cn1cc[n+](Cc2ccccc2)c1)c1ccc([N+](=O)[O-])cc1	7
COc1ccc(N(C)S(=O)(=O)c2cccc(C(=O)NC3CCC(C)CC3)c2)cc1 (stereo not given)	0
Cc1cc(C)cc(NC(=O)CCCSc2nc3ccccc3[nH]2)c1	11
COc1ccc(S(=O)(=O)N2CCOC2CNC(=O)C(=O)NCCCn2ccnc2)cc1OC (stereo not given)	15
Cc1ccc(C(=O)N2CCN(c3ccc([N+](=O)[O-])c(NCc4cccnc4)c3)CC2)cc1	11
CCC(=O)Nc1ccc(-c2csc(C)n2)cc1	14
CNC(=O)N(O)C1N(/N=C/c2cccs2)C(=S)SC1(C)C (stereo not given)	7
CCOC(=O)c1c(NC(=O)CC2Nc3ccccc3NC2=O)sc(C)c1C (stereo not given)	11
O=C(O)c1ccccc1CSC1=NCCS1	17
CCc1cc2ccccc2nc1Cl	10
CCC(C)[C@H](NC(=O)NCc1ccco1)C(=O)OC (stereo not given in full)	16
CC(C)=CC(=O)OCC(=O)Nc1cccc([N+](=O)[O-])c1	12
Cc1cc(NC(=O)CN2C(=O)/C(=C/c3cccc(Br)c3)SC2=S)no1	8
COc1ccc(CCNC(=O)CSCc2c(F)cccc2Cl)cc1OC	0
Cc1cc(NC(=O)CCC(=O)N(CC(=O)NC2CCCC2)Cc2cccs2)no1	22
CCN(CC)CC#CCOC(c1ccccc1)c1ccccc1	14
CCOc1ccccc1C(=O)NC1CC2CCCC(C1)N2Cc1ccccc1 (stereo not given)	16
CCOC(=O)C1(CCCc2ccccc2)CCN(Cc2nccn2CC)CC1	-5
CN1C(C(=O)NCC2CC2)CC2Cn3c(nc4cc(Cl)c(Cl)cc43)C21 (stereo not given)	11
Cc1nc(NC(=S)NC(=O)c2ccccc2)sc1C	12
Cc1c(Nc2ccc3nonc3c2[N+](=O)[O-])c(=O)n(-c2ccccc2)n1C	28
CC(C(=O)NCCC1=CCCCC1)c1ccc([N+](=O)[O-])cc1 (stereo not given)	16
O=C(N/C=C/c1ccco1)Nc1cccc(Cl)c1	22
Clc1ccc(N/N=C/c2cccnc2)cc1	23
O=C(O)CCCCCNS(=O)(=O)/C=C/c1ccccc1	22
CCC1(C)Cc2ccccc2-c2nc(NCCCO)[nH]c(=O)c21 (stereo not given)	16

molecule	Calb biofilm kill
COC(=O)CC(c1ccc(F)cc1)n1c(C)ccc1C (stereo not given)	12
O=C(COC(=O)c1cc(=O)[nH]c(=O)[nH]1)Nc1cccc(S(=O)(=O)N2CCCCC2)c1	12
CC(C)(C)CC(=O)Nc1ccc(S(=O)(=O)N2CCCC2)cc1	7
COc1cccc(C(=O)Nc2ccccc2F)c1	10
COc1ccc(Cl)cc1CN1CCOCC1	29
CCN1C(=O)C(O)(CC(=O)c2cccc(-n3cccc3)c2)c2ccccc21 (stereo not given)	19
Cc1cc(C)c2nc(N3CCC(C(=O)NCc4ccccn4)CC3)sc2c1	14
C=CCN(CC=C)CCOc1ccccc1F	21
COCCNC(=O)/C(C#N)=C/c1cn(CC(=O)NCc2ccco2)c2ccccc12	19
CCCN1C(=O)/C(=C/c2ccc(C)s2)NC1=S	14
Cn1c(=NC(=O)c2cccc([N+](=O)[O-])c2)sc2ccccc21	17
O=C(CCN1CCN(Cc2ccccc2)CC1)Nc1ccccc1Cl	14
COc1cc2c(cc1OC)CC(=O)NC=C2	-4
CCC1C(=NO)C(CC)C(c2ccccc2)NC1c1ccccc1 (stereo not given)	6
COC(=O)c1cc(CNC(=O)c2cccc(Cl)c2)ccc1OC	11
Cc1ccc(NC(=O)COC(=O)c2ccccc2Nc2ccccc2)cc1	11
CN(Cc1ccc(OCC(O)CN2CCCCC2)cc1)Cc1ccnc2ccccc12 (stereo not given)	10
O=C(NC(Cc1ccccc1)C(=O)NC1CC1)OCc1ccccc1 (stereo not given)	5
Cc1ccc(-n2nnnc2SCC(=O)NNC(=O)c2ccc([N+](=O)[O-])cc2)cc1	4
c1coc(-c2cc(C3CCNCC3)[nH]n2)c1	16
COc1cc(CNCCCCO)ccc1OCc1ccccc1F	17
Cc1cc(C(=O)NP(=O)(N2CCOCC2)N2CCOCC2)c(C)n1-c1ccc(Br)cc1	25
COc1cc2c(cc1OC)CN(C(=S)Nc1ccccc1Cl)CC2	18
CC(C)OCCCNC(=O)Nc1cccc2ccccc12	7
O=C(N/C(=C/c1cccc([N+](=O)[O-])c1)C(=O)N1CCCCCC1)c1cccs1	16
N#CCC(=O)N/N=C/c1ccccc1Cl	-4
CC(C)c1nnc(SCC(=O)N2CCc3ccccc32)n1N	0
COc1ccc(N2CCN(C(=O)CCc3ccc(S(=O)(=O)NCC(C)C)cc3)CC2)cc1	15
CC(=O)Nc1nc2ccccc2[nH]1	9
CC1=NN(C(=O)c2csc(C)c2C)C(O)(C(F)(F)F)C1 (stereo not given)	21

Rewritten with each value named: entries from further up
canonical_smiles: O=C(CCN1CCN(Cc2ccccc2)CC1)Nc1ccccc1Cl
  Calb biofilm kill: 14
canonical_smiles: COc1cc(CNCCCCO)ccc1OCc1ccccc1F
  Calb biofilm kill: 17
canonical_smiles: CCCN1C(=O)/C(=C/c2ccc(C)s2)NC1=S
  Calb biofilm kill: 14
canonical_smiles: O=C(N/C(=C/c1cccc([N+](=O)[O-])c1)C(=O)N1CCCCCC1)c1cccs1
  Calb biofilm kill: 16

Going on with the list:
molecule	Calb biofilm kill
O=[N+]([O-])c1cccc(-c2nnc(C34CC5CC(CC(C5)C3)C4)o2)c1	18
CCc1ccc(Nc2ncc3c(n2)CC(C)CC3=O)cc1 (stereo not given)	-2
Cc1cccc(NC(=O)COc2cccc3c2CCN(C)C3=O)c1C	-1
O=C(Nc1cccc(C(=O)O)c1)Nc1ccccc1Cl	11
O=C(Nc1ccc([N+](=O)[O-])cc1)C(Cc1ccccc1)N1C(=O)c2cccc3cccc(c23)C1=O (stereo not given)	17
C=CCOc1ccc(-c2n[nH]c(=S)o2)cc1	10
O=C(COc1ccccc1)Nn1c(-c2ccccc2)nc2ccccc2c1=O	10
COc1ccc(C2CC(c3ccccc3)=NN2C(=O)COC(=O)c2cc(S(=O)(=O)N3CCOCC3)ccc2F)cc1 (stereo not given)	1
CC(C)(C)c1ccc(OCC(O)CN(CCO)CC(O)Cn2ccc3ccccc32)cc1 (stereo not given)	3
Cc1ccc(CNS(=O)(=O)c2ccc3c(c2)OCCO3)cc1	8
CCn1c(=O)c([N+](=O)[O-])c(NCCCn2ccnc2)c2ccccc21	12
O=C(Nc1nccs1)c1ccc2c(=O)n3c(nc2c1)CCCCC3	17
CCNC(=S)N(Cc1ccco1)Cc1cc2cc3c(cc2[nH]c1=O)OCCO3	19
CC1(C)CC(NC(=O)N2c3ccccc3Sc3ccccc32)CC(C)(C)N1	6

High-throughput results as filed in PubChem BioAssay.
